Screening results: PubChem BioAssay, ICCB-Longwood Screening Facility, Harvard Medical School
S aureus helic – S. aureus DNA helicase inhibition; purified S. aureus helicase, fluorescence unwinding assay; about half of the hits fall short of the stated cut; inhibition, %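 (tested at about 80 µM)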; hit rate 0.05% among 120,000; AID 485395;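 active = both duplicates at 50% or more, or one of them with a favoured structure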;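 note: 0% = mean of negative control wells and 100% = mean of positive control wells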
MgrA-DNA mod – alters Staphylococcus aureus MgrA binding to DNA; fluorescence polarization; inhibition, %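 (about 10 µg/mL by stock and volumes)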; hit rate 0.13% among 84,000; AID 602314;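 active = above 50% in either of two replicates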;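 note: 0% = protein plus DNA without compound and 100% = DNA alone without protein; higher means less MgrA bound to DNA so lower polarization; one replicate is shown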
Starred values were filed as active, the others as inactive; nt = no result given; & = joins results of further samples. Only part of the results is shown, so the mix of outcomes need not match the whole.

SMILES | S aureus helic | MgrA-DNA mod
O=C(OC(C(=O)c1ccccc1)c1ccccc1)c1ccccn1 (stereo not drawn) | -11.0 | nt
CC1(C)Cc2ccccc2/C(=C/C(=O)Nc2ccccc2)N1 | -2.0 | -0.2
COCCN1CCC(=O)C(C)C1C (stereo not drawn) | 1.0 | nt
O=C(NC(c1ccccc1)c1nnc(-c2ccccc2)o1)c1cccc(Cl)c1 (stereo not drawn) | -1.0 | nt
O=C(CC1CS(=O)(=O)CC1CC(=O)NCc1ccccc1)NCc1ccccc1 (stereo not drawn) | 10.0 | nt
COC(=O)c1sc(OC)cc1OC(=O)c1cccs1 | nt | -2.5
COC(=O)c1cc(NC(=O)CSCCc2ccccn2)cc(C(=O)OC)c1 | 6.0 | nt
O=C(NCc1ccccc1)C1CCCN1S(=O)(=O)c1cccc2nsnc12 (stereo not drawn) | 16.0 | nt
CC(C)(C)c1ccc(C2Oc3ccccc3C3CC(c4ccc(Br)cc4)=NN32)cc1 (stereo not drawn) | nt | 0.1
CN(C)c1ncc2c(=O)n(CC3CCCO3)ccc2n1 (stereo not drawn) | 23.0 | nt
Cc1ccc(O)c(NC(=O)c2nn3c(c2Br)NC(c2cccs2)CC3C(F)(F)F)c1 (stereo not drawn) | nt | 4.6
CCOC(=O)c1cc(-c2ccccc2)sc1NC(=S)Nn1cnnc1 | 8.0 | -0.1
Cc1onc(-c2ccccc2)c1NC(=O)N(Cc1ccccc1)C(C)C | nt | 0.8
CCCCCC(=O)N1c2ccccc2NC2=C(C(=O)CC(C)(C)C2)C1c1cc(OC)ccc1OC (stereo not drawn) | nt | -1.6
CNC(=O)OCc1cccc(COC(=O)NC)n1 | -25.0 | nt
Cn1c(=O)c2cc3c(=O)n(C)c(=O)c3cc2c1=O | 29.0 | nt
O=C(NC1CCCC1)C1CCN(S(=O)(=O)c2ccc3nc(-c4ccccc4)[nH]c3c2)CC1 | -2.0 | 4.0
COCCOC(=O)C1=C(N)OC2=C(C(=O)CC(C)(C)C2)C1c1ccc(Br)cc1 (stereo not drawn) | nt | -1.0
CCCCNC(=O)N1CCCCC1 | 0.0 | -8.2
O=C(NCC1CCCO1)c1ccc(/C=N/O)nc1 (stereo not drawn) | 12.0 | 0.7
Cc1c(C(=O)Nc2ccccc2)cc(-c2ccccc2)n1-c1ccccc1 | nt | 0.2
CCCCn1cnc2cc(NCc3cccs3)ccc21 | 7.0 | nt
COC(=O)c1sc(SC)c(C#N)c1-c1ccc(Cl)cc1 | nt | -1.0
O=C(O)c1cc2ccc3c(c2oc1=O)CN(c1ccc(Cl)cc1)CO3 | 36.0 | nt
Cc1ccc(-n2c(=O)c3ccccc3n(CC(=O)NCCc3ccccc3)c2=O)cc1 | 0.0 | nt

(listing goes on)
SMILES | S aureus helic | MgrA-DNA mod
COc1ccc2c(=O)c(-c3cc4ccccc4o3)coc2c1 | -9.0 | nt
CCC(Sc1ccc2nnc(-c3ccc(C)cc3)n2n1)C(=O)O (stereo not drawn) | 9.0 | -1.8
Cc1nn(-c2ccccc2)nc1C(=O)NC(=O)N1CCCC1 | nt | -0.2
Cc1ccc(S(=O)(=O)c2ccc(C)cc2)cc1 | nt | -2.7
CN(C)c1cccc(C(=O)OCC(=O)c2ccc(F)cc2)c1 | -4.0 | -1.1
Cc1ccc(-n2c(CCC(=O)OCC(=O)NC3CCS(=O)(=O)C3)nc3ccccc3c2=O)cc1 (stereo not drawn) | 6.0 | nt
Cc1ccc(C2=NN(C(=O)COC(=O)[C@H](Cc3ccccc3)N3C(=O)c4ccccc4C3=O)C(c3ccco3)C2)cc1 (stereo partly drawn) | 13.0 | nt
Cc1nnsc1C(=O)N(C)c1ccccc1 | 9.0 | nt
c1ccc(Nc2ncnc3nc[nH]c23)cc1 | 21.0 | nt
O=C(CN1CCOCC1)Nc1nnc(CCS(=O)(=O)c2ccc(Br)cc2)s1 | nt | -0.8
Cc1ccc(C2c3c(oc4ccccc4c3=O)C(=O)N2c2nccs2)cc1 (stereo not drawn) | -3.0 | nt
CCOC(=O)N1CCC(n2ccc3nc(SC)ncc3c2=O)CC1 | 23.0 | nt
CC12CC3(C)CC(C)(C1)CC(Br)(C2)C3 | nt | -1.1
CCCC(=O)N(Cc1ccccn1)c1nc2ccccc2s1 | 13.0 | nt
CCOC(=O)c1oc2ccccc2c1COC(=O)CNC(=O)c1ccc2c(c1)OCO2 | -4.0 | nt
Cc1ccc(Oc2ncccc2C(=O)NC(=O)c2ccccc2O)cc1 | nt | -1.2
CN(C)C(=O)C1CCCN1 (stereo not drawn) | -12.0 | nt
COc1cc2c(cc1OC)C1CCCN1C(C)(C)C2 (stereo not drawn) | -22.0 | nt
COc1ccc(C)cc1S(=O)(=O)NCC(c1ccco1)N1CCc2ccccc2C1 (stereo not drawn) | 5.0 | nt
Oc1ccccc1CNc1nc2ccccc2n1CCN1CCCCC1 | 8.0 | nt
CC(C)(C)C(=O)C(C#N)C(=O)Nc1ccc(Cl)cc1 (stereo not drawn) | nt | -0.8
COc1cc(C(F)(F)F)nc2ccc(C#CCO)cc12 | nt | -3.5
O=C(C1CCN(Cc2cnn(-c3ccccc3)c2-n2cccc2)CC1)N1CCN(c2ccccc2)CC1 | 23.0 | nt
Cc1ccc(S(=O)(=O)N2CCN(S(=O)(=O)N(C)C)CC2)cc1 | 1.0 | 2.8
CC(C)NC(=O)c1cccnc1Nc1cccc(C(F)(F)F)c1 | -7.0 | nt

Going on with the list:
SMILES | S aureus helic | MgrA-DNA mod
Cc1cc(C)n(CCCNC(=O)Cn2cnc3ccccc3c2=O)n1 | 6.0 | nt
CSc1sc(C(=O)O)c(-c2cccc(Cl)c2)c1C#N | nt | 3.8
Cn1c(=S)[nH]c2c(c1=O)C1(CCCC1)Cc1ccccc1-2 | 4.0 | 19.7
COC(=O)COc1ccc(/C=C2\C(=O)NC(=S)N(c3ccccc3)C2=O)cc1OC | nt | 8.1
CCN(CC)Cc1c(O)ccc2cc(-c3ccc(OC)c(OC)c3)c(=O)oc12 | 10.0 | 2.9
CC(C)CN(CC(C)C)C(=O)CSc1nnc(-c2cccc(Cl)c2)n1N | -18.0 | nt
Cc1cc2cc(CCNS(=O)(=O)c3ccccc3)c(=O)[nH]c2cc1C | 3.0 | nt
O=C(NCC(F)(F)C(F)F)c1ccncc1 | nt | 0.2
Cc1ccc(C(=O)NC(C)c2ccc(S(N)(=O)=O)cc2)s1 (stereo not drawn) | -6.0 | nt
O=C1CC(=O)CC(c2cccs2)C1 | nt | -9.7
CC(C)Cn1cnc2c(c(-c3ccccc3)c(-c3ccccc3)n2Cc2ccco2)c1=N | 0.0 | -3.3
Cc1cc(C)cc(C(=O)N(C(C)C)C(C)C)c1 | 14.0 | 0.7
COc1ccc(C2=NN(C(C)=O)C(c3cn(-c4ccccc4)nc3-c3ccccc3)C2)cc1 (stereo not drawn) | nt | -1.2
Cc1ccc(NC(N)=O)cc1 | nt | -2.8
CC1CCC(C(=O)NC(C(=O)N2CCN(Cc3ccccc3)CC2)C(C)C)CC1 (stereo not drawn) | 0.0 | nt
Cn1c(SCc2cc(F)cc3c2OCOC3)nnc1C(F)(F)F | nt | 1.0
Cc1ccc(/C=N\N2CCN(c3ccccc3)CC2)cc1 | 13.0 | nt
COc1ccc(NC(=O)c2cc3ccccc3oc2=O)cc1 | -16.0 | nt
CC(=O)Oc1ccc(OC(C)=O)cc1 | -4.0 | nt
COCCn1c(O)c(C=NCCn2c(C)nc3ccccc32)c(=O)[nH]c1=S | -136.0 | nt
CCOC(=O)c1c(C)n(CCO)c2ccc(O)cc12 | 1.0 | nt
Cc1ccc(NC(=O)c2sc3nc(N)c(C#N)cc3c2N)cc1 | -22.0 | nt
CCOc1ncnc2cc(OC)c(OC)cc12 | nt | -1.1
CCC(C(=O)NCc1ccco1)n1nc(C)c2sc3ccccc3c2c1=O (stereo not drawn) | 17.0 | nt
COC(=O)c1sccc1Oc1nccc(C(F)(F)F)n1 | nt | -1.9

Some of these compounds in order of length of the SMILES, ascending:
SMILES | S aureus helic | MgrA-DNA mod
COCCN1CCC(=O)C(C)C1C (stereo not drawn) | 1.0 | nt
Cc1nn(-c2ccccc2)nc1C(=O)NC(=O)N1CCCC1 | nt | -0.2
COC(=O)c1cc(NC(=O)CSCCc2ccccn2)cc(C(=O)OC)c1 | 6.0 | nt
CCN(CC)Cc1c(O)ccc2cc(-c3ccc(OC)c(OC)c3)c(=O)oc12 | 10.0 | 2.9

In another format: entries from further up
The line under a structure holds: S aureus helic, MgrA-DNA mod
> Cn1c(=S)[nH]c2c(c1=O)C1(CCCC1)Cc1ccccc1-2
    4.0, 19.7
> O=C(CC1CS(=O)(=O)CC1CC(=O)NCc1ccccc1)NCc1ccccc1 (stereo not drawn)
    10.0, nt

(more compounds)
SMILES | S aureus helic | MgrA-DNA mod
CC(C)(C)NC(=O)CCN1C(=O)/C(=C/c2ccccc2)SC1=S | 5.0 | nt
CC(C)=NNC(=O)CNc1ccccc1Cl | 4.0 | -1.1
O=C(Cc1cccs1)NC1C(=O)N2C(C(=O)[O-])=C(C[n+]3ccccc3)CSC12 (stereo not drawn) | nt | 4.4
Cc1csc(NC(=O)c2cc3c(s2)-c2c(C)cccc2OC3)n1 | 9.0 | nt
Cc1c(C=Nc2ccc(Cl)cc2)c(O)n(C)c(=O)c1C#N | 3.0 | 0.6
COc1ccc2c(C)cc(=O)[nH]c2c1 | -4.0&1.0 | -1.0&1.8
Cc1cc(NC(=O)c2sccc2C)n(CCOC(=O)c2sccc2C)n1 | 10.0 | nt
CCc1cccc(C)c1NC(=O)CN(C)C1=NS(=O)(=O)c2ccccc21 | -4.0 | nt
Cn1c(C(=O)N2CCC(C(=O)NCc3ccccc3Cl)CC2)cc2oc3ccccc3c21 | 11.0 | nt
CC(=O)NC(Cc1c[nH]c2ccccc12)C(=O)NCc1ccc(C(C)(C)C)cc1 (stereo not drawn) | 1.0 | nt
Cc1cccc(-c2noc(-c3ccccc3C(=O)NCc3cccnc3)n2)c1 | -4.0 | -1.8
NC1(CN2CCCCC2)CCCCC1 | 11.0 | 4.5
Cc1ccc(NC(=O)C(C#N)Cc2ccncc2)cc1C (stereo not drawn) | 17.0 | -0.1
CCSC1(SCC)N=C(N)C2(C#N)C(c3ccc(OC)cc3)C12C#N (stereo not drawn) | 8.0 | 0.4
CC(C)NCC(O)Cn1c2c(c3ccccc31)CCc1c-2cnn1-c1ccccc1 (stereo not drawn) | 12.0 | 0.7
CS(=O)(=O)Nc1ccccc1C(=O)NCCN1CCOCC1 | -2.0 | 1.6
Cc1cc(F)ccc1S(=O)(=O)Nc1ccc2oc3c(c2c1)C(=O)CC(C)(C)C3 | -5.0 | 1.1
O=C1C(=Nc2ccc(F)cc2)c2ccccc2N1c1ccccc1 | nt | 0.6
OC1CCN(Cc2cccc3ccccc23)CC1 | 0.0 | -3.9
O=C1CC(Nc2ccccc2)C(=O)N1c1ccccc1Cl (stereo not drawn) | 12.0 | -2.1
CCCNC(=O)[C@H]1O[C@@H]1C(=O)N[C@H](C(=O)N1CCC[C@H]1C(=O)OC)C(C)CC (stereo partly drawn) | nt | 0.2
Cc1nc2c(Cl)cc(Cl)cc2[nH]1 | 9.0 | -0.9
O=C(Cn1ncn2c(cc3sccc32)c1=O)NCc1ccccc1 | -2.0 | nt
O=C(NO)c1ccccc1C(F)(F)F | 26.0 | nt
C=CCNC(=O)c1cc(-c2ccc(Cl)cc2)on1 | -6.0 | nt

Reformatted: two of the compounds above.
compound	S aureus helic	MgrA-DNA mod
CC(C)(C)NC(=O)CCN1C(=O)/C(=C/c2ccccc2)SC1=S	5.0	nt
CC(C)=NNC(=O)CNc1ccccc1Cl	4.0	-1.1

3 compounds from above, arranged by the number in S aureus helic, ascending.
SMILES | S aureus helic | MgrA-DNA mod
CN(C)c1cccc(C(=O)OCC(=O)c2ccc(F)cc2)c1 | -4.0 | -1.1
OC1CCN(Cc2cccc3ccccc23)CC1 | 0.0 | -3.9
Cc1ccc(/C=N\N2CCN(c3ccccc3)CC2)cc1 | 13.0 | nt

Next results follow.
SMILES | S aureus helic | MgrA-DNA mod
COc1ccc(-c2cnnn2-c2ccc(N)cc2)cc1 | -18.0 | nt
CSc1nnc(NC(=O)c2cccc3ccccc23)s1 | 6.0 | nt
Cc1ccc(CNC(=O)Nc2ccc3c(c2)N(C)C(=O)c2ccccc2S3)cc1 | 2.0 | -1.4
O=C1CSC(c2ccccc2)N1CCc1ccccc1 (stereo not drawn) | 8.0 | 2.7
CC(C)OC(=O)c1ccc(NC(=O)c2ccc(Cn3cc(Br)cn3)cc2)cc1 | 7.0 | nt
c1ccc(Nc2nc(Nc3ccccc3)nc(Oc3ccccc3)n2)cc1 | 16.0 | -2.4
CCOC(=O)C1CCN(C(=O)Cc2cccc3ccccc23)CC1 | 17.0 | -1.9
Cc1csc(-c2coc3cc(OCC4OC(CO)C(O)C(O)C4O)ccc3c2=O)n1 (stereo not drawn) | nt | 3.5
CSc1nnc(CNC(=O)COc2ccccc2)n1-c1ccc(F)cc1 | 14.0 | nt
CCS(=O)(=O)N1CCc2cc(C(=O)COC(=O)c3cn(C)c4ccccc34)ccc21 | -7.0 | nt
CC1(C(=O)c2ccccc2)C2c3cc(Br)ccc3OC(=O)C21C(=O)c1ccco1 (stereo not drawn) | 11.0 | nt
CN(N=O)C(=O)NC1[C@@H](O)OC(CO)[C@@H](O)[C@H]1O (stereo partly drawn) | nt | 4.3
NC(=S)Nc1ccc(C(F)(F)F)cc1Cl | nt | -0.6
CC(C)c1cc(C(=O)NC2CCCCC2)no1 | 9.0 | nt
CCC(C)OC(=O)CSc1ncnc2sc3c(c12)CCC(C)C3 (stereo not drawn) | 10.0 | 4.3
Cc1ccc2onc(CNC(=O)NCCN3CCc4ccccc4C3)c2c1 | 3.0 | nt
Cc1ccc(NC(=O)C(C)Sc2nnc(C)n2C)cc1 (stereo not drawn) | 8.0 | 0.7
Cc1cccc(C)c1NC(=O)c1cnc(NC2CCCCC2)cc1C(F)(F)F | nt | -1.2
O=C(c1cccc(C(F)(F)F)c1)N1CCN(c2ccc(N3CCCCCC3)nn2)CC1 | -18.0 | nt
